# Screening results (PubChem)
# Vaccinia mCherry = vaccinia inhibition (mCherry reporter). Vaccinia virus mCherry reporter infection, fluorescence; about a quarter of the inactives have no number. Potency, µM (doses to about 36.5 µM), for inactives: at the top dose activity change, negative = inhibition, hits mostly inhibitors. actives 0.63% (n = 310,000); active = well fitted inhibition curve with a large enough effect; inconclusive = small, poorly fitted or top-dose-only effect; inactive = no such curve, though single readings can be large or run the other way; tested in A549 cells; note: nearly all actives have a fitted effect of over 35% in size; inactives centre near -10
# VACV Venus inh = vaccinia inhibition (Venus reporter); Potency, µM (series often up to 36.5 µM), without a hit: at the top dose activity change, negative = inhibition, usual class: inhibitors; actives 0.46% (n = 330,000); Vaccinia virus Venus reporter expression, fluorescence; active means well fitted inhibition curve with a large enough effect; inconclusive means small, poorly fitted or top-dose-only effect; inactive means no such curve, though single readings can be large or run the other way; tested in A549 cells; note: nearly all actives have a fitted effect of over 30% in size; inactives centre near -10
# * = called active by the depositor; i = inactive; ? = inconclusive; / = not tested or not shown; & = joins results of further samples; [ ] = another dose, or the depositor's remark. % is set by controls: 0 for no effect and ±100 for the full control effect; potency is the fitted concentration of half-maximal effect.
SMILES,Vaccinia mCherry,VACV Venus inh
N=c1c2c(ncn1CCN1CCOCC1)Oc1cc(O)ccc1C2c1ccccc1 (stereo not given),-7%,-18%
CC1=C(C(=O)N(C(C)C)C(C)C)CC(CC(=O)NC(c2ccccc2)c2ccccc2)C(=O)N1CCCN1CCCC1=O (stereo not given),8%,3%
CCS(=O)(=O)c1ccc2oc(=O)c(/C=C(\O)c3ccc(Cl)cc3)nc2c1,-1%,3%
Nc1ncc(P(=S)(N2CCOCC2)N2CCOCC2)s1,/,?
CN(CCC#N)C(=O)CC(Cc1ccccc1)C1CCOC(C)(C)C1 (stereo not given),-21%,-12%
Cc1ccc(-c2cc(NC=O)c3ncc(-c4cnn(C)c4)n3c2)cc1,-21%,?
O=C1C=C(NNC(=O)c2ccccc2Br)CCC1,i,-10%
N#CCCN(C(=O)COC(=O)c1ccc2c(c1)OCCO2)c1ccccc1,i,-10%
C/C(NC(=O)c1ccccc1F)=C1\C(=O)C[C@@H]2[C@H]1C2(C)C,/,-19%
O=[N+]([O-])c1ccc(-c2ccc(/C=N/Nc3nc(N4CCCCC4)nc(N4CCCCC4)n3)o2)cc1,0%,4%
CO/N=C/c1ccc(N2CCOCC2)c([N+](=O)[O-])c1,-13%,-8%
N#CCCN(Cc1cccs1)C(=O)Nc1ccccc1,-11%,-13%
O=C(Nc1ccccc1)ON=C1c2ccccc2-c2ccccc21,i,-10%
Cc1ccc(S(=O)(=O)NC2CCSC2=O)cc1C (stereo not given),i,-8%
COc1cccc(NC(=O)C2C3C=CC4(O3)C2C(=O)N(C2CC2)C4C(=O)NC2CCCCC2C)c1 (stereo not given),-17%,-2%
CCOc1ccccc1C(=O)NCC(=O)OCCCOC(=O)CNC(=O)c1ccccc1OCC,-2%,-9%
OC1(c2ccccc2)C/C(=N\n2cnnc2)C=C1c1ccccc1 (stereo not given),-20%,-5%
COc1ccc(C2CC(=O)N(Cc3ccc(F)cc3)c3ccccc3S2)cc1 (stereo not given),-10%,-9%
C/C(=N\NC(=O)c1ccc([N+](=O)[O-])cc1)c1c(O)cc(C)oc1=O,-6%,-11%
Cn1c(=O)c2[nH]c(C3CC3)nc2n(C)c1=O,i,-9%
Cc1ncc(CO)c2c1Oc1nc(-c3ccccc3)nc(SCC(=O)N3CCCCC3)c1C2,-14%&-22%,-4%&-10%
CC(=O)Nc1ccccc1OC(C)C(=O)N1CC(C)CC(C)C1 (stereo not given),-14%,-3%
CC(C)(C)C1CCC(=NNC(=O)CC(=O)NCc2ccccc2)CC1 (stereo not given),-12%,-15%
Cc1cccc(C(=O)Nc2nnc(-c3ccncc3)o2)c1,-5%,-5%
Cc1cccc(-c2nc3c4ccccc4n(CC(=O)Nc4cccc(F)c4)c(=O)n3n2)c1,-17%,-14%

# Record cards, as listed above. Values in the order: Vaccinia mCherry, VACV Venus inh
# CN(CCC#N)C(=O)CC(Cc1ccccc1)C1CCOC(C)(C)C1 (stereo not given) is listed as -21%, -12%
# C/C(NC(=O)c1ccccc1F)=C1\C(=O)C[C@@H]2[C@H]1C2(C)C is listed as /, -19%
# CC(C)(C)C1CCC(=NNC(=O)CC(=O)NCc2ccccc2)CC1 (stereo not given) is listed as -12%, -15%
# Cc1cccc(C(=O)Nc2nnc(-c3ccncc3)o2)c1 is listed as -5%, -5%
# COc1cccc(NC(=O)C2C3C=CC4(O3)C2C(=O)N(C2CC2)C4C(=O)NC2CCCCC2C)c1 (stereo not given) is listed as -17%, -2%

# (more compounds)
SMILES,Vaccinia mCherry,VACV Venus inh
c1csc(CSc2nnc3sc4ccccc4n23)c1,/,-22%
CCOC(=O)N1CCC(NCCNC(=O)c2ccc(F)c(F)c2)CC1,-8%,2%
O=C(CN1CCOCC1)Nc1cccc(C(F)(F)F)c1,-11%,0%
COc1ccc(CNC(=O)COC(=O)C2CCC(C(C)(C)C)CC2)cc1 (stereo not given),-18%,-15%
COc1ccc(Nc2nc3ccccc3c(=O)s2)c(OC)c1,/,-14%
Cc1ccc(/C=C/C(=O)O)cc1S(=O)(=O)NCCCC(=O)O,-6%,-9%
CCC1CCCCN1C(=O)COc1ccc2c(c1)OCO2 (stereo not given),-16%,-14%
N#CCCCSc1nnc(-c2ccc(Cl)cc2)n1-c1ccccc1,-4%,-18%
COc1cc(/C=N/NC(=O)CN(Cc2ccco2)S(=O)(=O)c2ccccc2)ccc1O,i,-9%
CCOc1cccc(C(=O)NC(=S)Nc2ccc(N3CCN(CC)CC3)cc2)c1,i,-15%
Cc1ccc(CCNC(=O)c2c[nH]c3ccc(S(=O)(=O)Nc4ccc(C)cc4C)cc3c2=O)cc1,-18%,-20%
COc1ccc(Nc2ccc(C(N)=O)cc2[N+](=O)[O-])cc1,?,4%
CCC(=O)OCn1nnc2ccccc2c1=O,-9%,2%
C#CCOCCOCCOCCNc1nc(N2CCN(C(=O)[C@H](CCCCN)n3cc([C@@H](N)CO)nn3)CC2)nc(N2CCN(C(=O)[C@H](Cc3ccc(O)cc3)n3cc([C@@H](N)CC(C)C)nn3)CC2)n1,i,-4%
Cn1c(SCc2ccccc2)nnc1-c1ccc(O)cc1,-10%,-14%
C=C(C)C1Cc2c(C)nn(-c3ccccc3)c2C1 (stereo not given),i,-11%
COc1cccc(-c2cnc(C(O)c3cc(Cl)cc(Cl)c3)[nH]2)c1 (stereo not given),-17%,-27%
Cc1ccc(CNC(=O)CCS(=O)(=O)c2cc(Br)cc3c2N(C(=O)C2CC2)CC3)cc1,-17%,-4%
CSCCC(NC(=O)c1c(C)oc2c1CCCC2)C(=O)O (stereo not given),-8%,-5%
CCN(CC(=O)NC1CCCCCC1)S(=O)(=O)c1ccccc1,/,-28%
Cc1ccc(Cc2c(-c3ccco3)nc3ccc(Cl)cn23)cc1,10%,4%
Cc1ccc(-c2nnc(N)o2)cc1,-6%,-9%
CCCC1=[N+](CC(=O)c2ccc(C)cc2)CCn2cccc21,i,-7%
CC(C)(C)NC(=O)C(c1ccncc1)N(C(=O)Cn1nnc(-c2ccc(F)cc2)n1)c1ccc(F)cc1 (stereo not given),3%,0%
Cc1ccc(N2CC(C(=O)OCC(=O)Nc3c(C)cccc3C)CC2=O)cc1 (stereo not given),-21%,-5%

# (next part)
SMILES,Vaccinia mCherry,VACV Venus inh
COc1ccc(NC2=Nc3ccccc3N[C@@]23C[C@H]2CCCC(=O)N4CC[C@@H](C3)[C@@H]24)cc1,-24%,-8%&-4%
COC(=O)C1ON2OC(C(=O)OC)C(C(=O)OC)C2C1CC(C)=O (stereo not given),-14%,-1%
COc1cccc(OCC(=O)N2CCN(C)CC2)c1,i,-12%
CSC1SCC2C(=O)N(C)C(C(C)C)C(=O)OCC(NC(=O)c3cnc4ccccc4n3)C(=O)NC(C)C(=O)N(C)C1C(=O)N(C)C(C(C)C)C(=O)OCC(NC(=O)c1cnc3ccccc3n1)C(=O)NC(C)C(=O)N2C (stereo not given),?,0.0035µM*
CC1(C)CC(=O)C=C(c2ccc(Oc3ccccc3)cc2)C1,-5%,-10%
O=c1[nH]cnc(O)c1C(c1cccc([N+](=O)[O-])c1)c1c(O)nc[nH]c1=O,-3%,-6%
O=C(C[C@H]1C[C@H](C(=O)N2CCCCC2)[C@@]2(CCc3ccccc3)c3[nH]c4ccc(Cl)cc4c3CCN2C1=O)NCCCn1ccnc1,-20%,11µM*
Cc1ccc(NS(=O)(=O)c2cc([N+](=O)[O-])ccc2NNC(=S)Nc2cccc(Cl)c2)c(C)c1,-11%,-1%
O=C1c2ccccc2C(c2nnnn2-c2ccc3c(c2)OCCO3)N1C1CC1 (stereo not given),26%,5%
O=C(NCc1ccco1)/C(=C\c1ccccc1)NC(=O)c1ccccc1,-5%,2%
Cc1no[n+]([O-])c1COc1ccc(/C=N/n2nnnc2N)cc1,14µM*,?
COc1ccc(-n2nnc3c(SCc4ccccc4)ncnc32)cc1,/,-3%
CCC(NS(=O)(=O)c1ccc(OC)cc1)C(=O)O (stereo not given),-9%,-15%
NC1=NC(c2ccc(Cl)cc2)n2c(nc3ccccc32)N1 (stereo not given),-3%,-12%
O=c1cc(O)c2sc(Nc3cccc(C(F)(F)F)c3)nc2[nH]1,-13%,-4%
O=C(O)c1cccc(CN2C(=O)S/C(=C/c3ccccc3[N+](=O)[O-])C2=O)c1,?,-1%
O=C(OCC(=O)N1CCCC1)c1cccc(Br)c1,i,-9%
CN(Cc1cccc(C(F)(F)F)c1)C(=O)[C@H]1O[C@@H](n2ccc(N)nc2=O)[C@H](O)[C@@H]1O,21%,5%
CCOC(=O)c1[nH]c(C)c(C(=O)OCCOc2cccc(C)c2)c1C,-21%,-22%
Cc1ccc2c(c1)c1cccc3c1n2CCN3CCC(N)=O,-21%[1.46 µM],-15%
Cc1nc2sc(C(c3ccco3)N3CCc4ccccc4C3)c(O)n2n1 (stereo not given),i,-6%
Cc1ccc([C@@H]2CC(=O)[C@@H]3CN(S(=O)(=O)c4ccccc4C)[C@H](c4ccc(Cl)cc4)C[C@@H]3N2S(=O)(=O)c2ccc(C)cc2)cc1,-22%,-29%
C=CCn1c(O)c(/C=C2\C=Nc3ccccc32)c(=O)[nH]c1=O,-5%,7%
COCCc1nn2c(=O)cc(COC(=O)c3ccc(Br)cc3)nc2s1,i,-4%
Cc1noc(C)c1COc1cccc(C(=O)N2CCc3ccccc32)c1,?,?

# Further structures.
SMILES,Vaccinia mCherry,VACV Venus inh
O=C(Nc1nnc(S(=O)(=O)N2CCN(c3ccc(F)cc3)CC2)s1)c1ccc(Cl)cc1,-15%,-22%
COc1ccc(CNCCS(=O)(=O)NCc2ccccc2)cc1,-10%,1%
CC12Cc3cn[nH]c3C=C1CCC1C2CCC2(C)C1CCC2(C)O (stereo not given),-12%,3%
COc1ccc(CCNC(=S)NC2CCN(Cc3ccccc3)CC2)cc1OC,0%,-8%
CN(C)S(=O)(=O)c1cccc(NC(=O)C2CCN(S(=O)(=O)c3cccs3)CC2)c1,-17%,-28%
CN(C)CC(C)(C)CNC(=O)CC1C(=O)NCCN1Cc1ccc(-c2ccccc2)cc1 (stereo not given),i,-3%
COc1ccccc1CN1CC(C(=O)NCc2cc(C(C)C)no2)CCC1=O (stereo not given),-12%,-9%
Cc1c(NC(=O)CN2CCN(c3ccc(F)cc3)CC2)c(=O)n(-c2ccccc2)n1C,i,8%
CN1C(C(=O)NC(C)(C)C)=CC(c2ccc3c(c2)OCO3)=NS1(=O)=O,-4%,2%
CC(C)(C)c1ccc(C(=O)Nc2ccc(CC(=O)O)cc2)o1,i,-6%
CCOc1ccc(N2C(=O)c3n[nH]c(-c4cccs4)c3C2c2cccc(F)c2)cc1 (stereo not given),-26%,-25%
O=C(NCCc1csc2nc(-c3ccccc3F)nn12)C(=O)Nc1cc(F)ccc1F,-9%,5%
Cc1cccc(CCn2c(=O)c3ccccc3n(CC(=O)Nc3ccccc3F)c2=O)c1,-20%,-16%
Cc1c(C)c2cc(Cl)c(OCC(=O)N3CCN(c4ccc(F)cc4)CC3)cc2oc1=O,-19%,-7%
Cc1ccc(Cn2c(C(=O)O)c(CNCc3ccc(OC(C)C)cc3)c3ccc(C)cc32)cc1,?,?
CCOC(=O)CC(NC(=O)Cn1nnc(-c2ccc(C(F)(F)F)cc2)n1)c1ccccc1Cl (stereo not given),0%,5%
Cc1ccc(-n2c(SCC(=O)NC3CCS(=O)(=O)C3)nc3ccccc3c2=O)cc1 (stereo not given),-1%,-7%
CC(=O)Nc1ccc(S(=O)(=O)N(C)c2ccc(OCC(=O)OCC(=O)N3CCCCC3)cc2)cc1,-2%,18%
COc1ccccc1C1NC(c2ccc3c(c2)OCO3)=CC(c2ccccc2O)N1 (stereo not given),-12%,7%
CC(=O)c1ccc(N(C(=O)c2ccco2)C(C(=O)NC2CCCC2)c2ccc(N3CCOCC3)cc2)cc1 (stereo not given),i,-3%
COC(=O)C1CCN(C(=O)C2CCN(C(=O)[C@@H](NS(=O)(=O)c3ccc(C)cc3)C(C)C)CC2)CC1,7%,4%
CCCCC(=O)N(C)c1c(CC)nc2c(OCC3CCCCC3)cccn12,26%,-3%
CCCCCOc1ccc(C(=O)Nc2ccc(S(=O)(=O)Nc3cc(C)on3)cc2)cc1,i,-2%
C/C(=N\NC(=O)c1ccc(CN2CCOCC2)cc1)c1ccc([N+](=O)[O-])cc1,-15%,-29%
O=C(Cn1c(=O)nc(-c2ccccc2)c2ccccc21)NCCCc1ccccc1,-10%,-2%

# New compounds follow:
SMILES,Vaccinia mCherry,VACV Venus inh
CCCNC(=O)c1ccc(N2CCC3(CC2)CC(c2ccccc2)=NO3)c(NC(=O)c2cccc(OC)c2)c1,-25%,-22%
CCOC(=O)c1c(NC(=O)CSc2cn(CCNC(=O)c3ccc(OC)cc3)c3ccccc23)sc2c1CCC2,-6%,-9%
O=C(Cc1ccccc1)Nc1nnc(-c2ccccc2)o1,i,-7%
O=C1NC(=O)C(=Cc2ccc(N3CCN(C(=O)c4ccccc4)CC3)c([N+](=O)[O-])c2)C(=O)N1,i,-10%
Cn1c(=O)[nH]c(=O)c2c1nc(CN1CCN(c3cccc(Cl)c3)CC1)n2CCN1CCOCC1,-12%,-7%
CC(=O)c1cc2c(cc1NC(=O)CCc1ccccc1)OCO2,-21%,-14%
CSc1ccc(/C=C(\C#N)C(=O)Nc2cccc(C)c2)cc1,-18%,-22%
Cc1ccccc1C(=O)Nc1ccc(NC(=O)c2cccs2)cc1,3%,4%

# Some of the entries above in a different format.
# Values in the order: Vaccinia mCherry, VACV Venus inh
> CCOC(=O)c1c(NC(=O)CSc2cn(CCNC(=O)c3ccc(OC)cc3)c3ccccc23)sc2c1CCC2
→ -6%, -9%
> CSc1ccc(/C=C(\C#N)C(=O)Nc2cccc(C)c2)cc1
→ -18%, -22%
